Screening data from PubChem.
MLL AF4-AF9 inh: blocks AF4 peptide binding to human AF9 | P42568 | 0.47% of 350,000 active | AlphaScreen, biotin-AF4 peptide binding to FLAG-AF9 | inhibition, % at 10 µM | AID 651704;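 active means every replicate reaching a set inhibition limit, whatever the replicate mean, cut at about 25% in these data; inconclusive means mean inhibition reaches that limit but some replicates miss it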;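 further: 0% = plate neutral control median and 100% = total signal loss; the record names both 10 and 1 µM as test concentration; the first replicate is given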
Target sequence (P42568 whole entry, looked up): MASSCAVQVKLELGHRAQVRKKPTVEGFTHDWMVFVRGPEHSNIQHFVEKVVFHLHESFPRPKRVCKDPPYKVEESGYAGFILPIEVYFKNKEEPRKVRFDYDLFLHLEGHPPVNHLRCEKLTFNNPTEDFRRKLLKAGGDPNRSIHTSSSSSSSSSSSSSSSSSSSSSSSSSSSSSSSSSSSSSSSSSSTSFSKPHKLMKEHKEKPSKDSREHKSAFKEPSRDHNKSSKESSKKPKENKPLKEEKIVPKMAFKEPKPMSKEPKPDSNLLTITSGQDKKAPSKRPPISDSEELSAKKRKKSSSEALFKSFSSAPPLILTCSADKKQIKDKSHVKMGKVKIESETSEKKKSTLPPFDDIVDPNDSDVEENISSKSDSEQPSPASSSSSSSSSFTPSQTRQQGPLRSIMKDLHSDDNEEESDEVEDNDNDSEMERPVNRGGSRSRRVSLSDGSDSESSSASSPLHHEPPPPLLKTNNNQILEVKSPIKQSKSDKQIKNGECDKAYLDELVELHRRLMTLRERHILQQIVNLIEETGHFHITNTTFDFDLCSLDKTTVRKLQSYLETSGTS
T cruzi repl: T. cruzi replication inhibition; inhibition, % (test concentration not listed); 1.4% of 300,000 active; T. cruzi beta-gal in NIH3T3, luminescence, 90 h;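 active means mean inhibition across valid replicates above about 55%, limit read from the data; inconclusive means mean below that limit but half or more replicates reach it; inactive means mean below it, under half of replicates reach it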;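 further: signal also drops with host cell toxicity which is not excluded here; 0% = plate median of DMSO wells and 100% = zero luminescence signal; higher percent means less beta-gal luminescence so fewer parasites; stock transfer was 50 nL into about 50 µL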
Calb FLC: C. albicans growth modulation with fluconazole; AID 1979; growth inhibition, % (concentration not given with the values); 0.57% of 300,000 active; C. albicans CaCi-2 (fluconazole-resistant clinical isolate) + fluconazole, Alamar Blue growth, 48 h;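 active means most replicates above 75%; inconclusive means exactly half above 75%; inactive means most below 75%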;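 further: all wells also contain fluconazole at 8 µg/ml as a sub-toxic cotreatment; 0% = median of DMSO wells and 100% = median of geldanamycin control wells; wells of about 8 µL received 7.5 nL stock; the first replicate is given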
Beta apoptosis: blocks beta cell apoptosis; INS-1E cytokine-induced death, ATP luminescence, 48 h; percent of positive-control rescue, neutral wells zero; protection from apoptosis, % (test concentration not listed); 0.8% of 300,000 active;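 active means all replicates at 75% or more, or half of them and the mean; inconclusive means half reach 75% but not the mean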;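 further: 0% = cytokine-treated negative control wells and 100% = positive control rescue; higher means more ATP so stronger rescue from cytokine killing; wells of about 40 µL received 100 nL stock; the first replicate is given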
RanGTP-Imp inh: disruptors of Ran-importin-beta complex formation – biochemical, FRET, CFP-Ran, YFP-importin-beta, homogeneous, primary screen; AID 2216; cell-free CFP-Ran/YFP-importin-beta FRET ratio; inhibition, % (no concentration beside the values); 1.1% of 300,000 active;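 active means most replicates above 15%; inconclusive means exactly half above 15%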;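 further: 0% = DMSO wells and 100% = Ran loaded with GDP instead of GTP; wells of about 40 µL received 100 nL stock; the first replicate is given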
Ecoli rRNA inh: inhibits bacterial ribosomal RNA function over humanized ribosomes. E. coli WT GFP vs humanized-ribosome RFP mutants, fluorescence, 24 h; active compounds read low; DMSO median 0, no signal -100. GFP signal change (wild-type ribosome), % (test concentration not listed). 1.6% of 350,000 active. AID 720706;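 active means significant combined selectivity score with lowered wild-type GFP, culture density cut under 30%, mutant RFP and density less affected; inactive means any of these conditions unmet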; further: one replicate is shown; some compounds called inactive have numbers as strong as hits
ALR inh: human ALR oxidase inhibition via reduced H2O2 | P55789 | AID 485317 | 3.8% of 290,000 active | purified ALR, DTT oxidation, H2O2 HRP-luminol luminescence | inhibition, % (concentration not given with the values);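 active means mean and each replicate at 75% or more; inconclusive means only one of the two met; inactive means neither met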;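 further: stock transfer was 7.5 nL into about 7.5 µL; 0% = neutral wells and 100% = wells with inactivated enzyme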
Target sequence (P55789 whole entry, looked up): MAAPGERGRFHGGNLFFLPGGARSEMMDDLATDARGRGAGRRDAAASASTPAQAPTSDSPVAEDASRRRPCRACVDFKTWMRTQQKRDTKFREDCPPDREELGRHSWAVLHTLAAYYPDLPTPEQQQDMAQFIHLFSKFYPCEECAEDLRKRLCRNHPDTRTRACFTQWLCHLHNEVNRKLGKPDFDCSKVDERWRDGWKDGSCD
FGF22 binding: shifts melting point of recombinant human FGF22; Q9HCT0; calls only at 9.99 µM; recombinant FGF22 thermal shift, SYPRO orange fluorescence; percent of sucrose octasulfate shift, DMSO zero; 1.5% of 340,000 active;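 active means melting point raised past a set limit in the mean and every replicate; inconclusive means no clear call; three in four hits are not shown here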
Target sequence (Q9HCT0 whole entry, looked up): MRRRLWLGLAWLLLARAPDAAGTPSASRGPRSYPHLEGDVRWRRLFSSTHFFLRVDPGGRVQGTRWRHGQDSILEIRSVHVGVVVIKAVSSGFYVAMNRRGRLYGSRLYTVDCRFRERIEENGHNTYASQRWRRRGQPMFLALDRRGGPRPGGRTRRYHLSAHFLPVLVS
Ecoli rRNA inh OD600: second read-out of Ecoli rRNA inh, no call of its own (marks repeat the call); OD600 change, %; measured here: OD600 growth;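 optical density of the mix in the first replicate; 0 = DMSO median and -100 = no signal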
Ecoli rRNA inh RFP: recorded beside Ecoli rRNA inh, whose call it bears; RFP signal change, %; measured here: RFP humanized mutant strains;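 first replicate; 0 = DMSO median and -100 = no signal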
* marks the source's active call; other numbers are inactive results; i = inactive; ? = inconclusive; · = no result given. Only part of the results is shown. The share of hits here may be higher or lower than overall.

SMILES | MLL AF4-AF9 inh | T cruzi repl | Calb FLC | Beta apoptosis | RanGTP-Imp inh | Ecoli rRNA inh | Ecoli rRNA inh OD600 | Ecoli rRNA inh RFP | ALR inh | FGF22 binding
Cc1cc(OC(=O)c2cccc(Cl)c2)c([N+](=O)[O-])c(=O)[nH]1 | 0.2 | -11 | 6 | -6 | -0.7 | 2 | 6 | -1.8 | -4 | i
CC(C)=CC(=O)N1CCCC(N2CCN(c3ccccc3C)CC2)C1 (stereo not given) | 0.1 | 12 | 0 | 0 | 2.8 | -1 | 7 | -0.1 | · | i
CCOc1ccc(N2CC(C(=O)Nc3cccc(C)c3C)CC2=O)cc1 (stereo not given) | · | 5 | 4 | 0 | -0.8 | · | · | · | 4 | ·
Cc1cc(C)c(S(=O)(=O)N2CCC(C(=O)NCc3ccco3)CC2)c(C)c1 | · | -6 | ? | -2 | -3.4 | · | · | · | -7 | ·
Cn1c(=O)c(C(=O)NNC(=O)c2cccc(Cl)c2)c(O)c2ccccc21 | 0.3 | 3 | -6 | 66 | -0.7 | 1 | -2 | -0.5 | · | i
COc1cccc(/C=N/n2nnnc2N)c1 | -2.6 | -13 | -1 | -4 | -0.7 | 9 | -14 | 0.3 | -3 | i
O=C(O)c1ccc(F)c(S(=O)(=O)Nc2ccccc2)c1 | · | 2 | -6 | 0 | -0.6 | · | · | · | -5 | ·
CCNC(=S)N1CCC(C(=O)c2ccc3c(c2)OCCO3)CC1 | 0.9 | 3 | -14 | -1 | ? | 8 | 12 | 1.9 | -6 | i
CC1=C(C(=O)OCc2ccccc2)C(c2ccc(-c3ccccc3)cc2)NC(=O)N1CCCCCC(=O)O (stereo not given) | 1.1 | · | · | 3 | · | -34* | -23* | -3.2* | 2 | i
NC(=O)c1cnn(-c2ccc3ccccc3c2)c1N | -3.4 | -15 | -7 | -5 | 0.4 | 19 | 13 | -1.5 | · | ·
CCNC(=O)COC(=O)CCC(=O)c1ccc(F)cc1 | -1.9 | 8 | -5 | 0 | -1.0 | 4 | 11 | 0.4 | -1 | i
Cc1nn(Cc2ccc(F)cc2)c(C)c1NC(=O)c1cc(-c2ccc3c(c2)OCO3)on1 | · | 46 | -4 | 14 | -2.1 | · | · | · | -3 | ·
CN(Cc1ccccc1)S(=O)(=O)c1ccc2c(c1)NC(=O)CC(=O)N2 | · | -9 | 2 | 9 | 5.4 | · | · | · | · | ·
CC(C)(C)S(=O)(=O)/C(C#N)=C/Nc1ccccn1 | 1.1 | -4 | -8 | -2 | 3.0 | 16 | 18 | -0.9 | -4 | i
Cc1ccc(S(=O)(=O)NC2=NCN(C3CCN(Cc4ccccc4)CC3)CN2)cc1 | · | 12 | 1 | -4 | -1.2 | · | · | · | -8 | ·
COCCCNC(=O)C1CCC(CNS(=O)(=O)c2ccc3c(c2)CC(C)N3C(=O)C2CC2)CC1 (stereo not given) | 2.6 | 11 | 7 | -1 | -2.0 | 2 | 5 | -2.0 | -2 | i
Cc1ccc(N(CN2CCCC2=O)C(=O)c2ccc(OC(C)C)cc2)cc1 | · | -21 | ? | 3 | -2.9 | · | · | · | -3 | ·
N#C/C(=C\c1c(Cl)cccc1Cl)c1nn(-c2ccccc2)c(-n2cccc2)c1C#N | 2.5 | 59* | 4 | 26 | -5.9 | 5 | -1 | 8.5 | 0 | i
Cc1ccc(C(=O)Nc2ccc(N3CCOCC3)nc2)cc1 | · | -4 | 13 | 7 | 6.6 | · | · | · | -21 | ·
COC(=O)CNC(=O)CN1C(=O)N(c2ccc(Cl)cc2)C(N(O)C(=O)Nc2ccc(Cl)cc2)C1(C)C (stereo not given) | · | -17 | 5 | 0 | 1.6 | · | · | · | 7 | ·
COc1cccc(C(=O)NNC(=O)c2ccccc2-n2cccc2)c1 | -1.6 | -8 | -18 | 1 | -1.2 | 0 | 9 | -1.2 | -4 | i
COc1ccccc1N1CCN(/N=C\c2ccc(C)o2)CC1 | · | -8 | 15 | · | 5.6 | · | · | · | 43 | ·
CCOc1ccccc1N1CCN(Cc2cn[nH]c2-c2ccc(F)cc2)CC1 | -2.0 | · | -14 | -3 | -3.3 | -19* | -4.8* | 3.6* | 10 | i
O=C(Cn1c(=O)oc2ccccc21)Nc1ccccc1C(F)(F)F | -6.9 | 1 | -6 | 1 | 0.0 | 6 | 7 | -0.5 | -18 | i
CN(CC(=O)Nc1cccc(F)c1)C(=O)C1=COCCO1 | -0.7 | -7 | -20 | -10 | -3.8 | 8 | -1 | -0.6 | 1 | ·
COc1ccccc1NC(=O)CN(C)S(=O)(=O)c1ccc2c(c1)CCC(=O)N2 | -4.1 | -4 | -1 | -2 | 6.3 | -1 | 2 | -1.8 | 3 | i
CCCCOCCCNC(=O)CC(C)c1ccccc1 (stereo not given) | · | 0 | -11 | -2 | 1.2 | · | · | · | 1 | ·
C/C(CCc1ccccc1)=N/NC(=O)C(=O)NCc1ccccc1 | -0.8 | -8 | 7 | -2 | -1.8 | 9 | 2 | -0.1 | -6 | i
O=C(NCc1cccc(Cl)c1)C1CCCO1 (stereo not given) | -0.1 | -4 | 21 | · | 2.3 | 14 | 10 | -0.2 | 5 | i
COC(CNC(=O)c1coc2nc3ccccc3nc12)OC | · | -12 | 5 | -5 | 2.9 | 4 | -10 | 7.7 | -4 | i
Cn1cc(SCC(=O)Nc2ccc3c(c2)OCO3)c2ccccc21 | 3.3 | 4 | 0 | 1 | 5.3 | -3 | -17 | 5.1 | -4 | i
O=C(NCCCn1cccn1)C1CCC(=O)N(Cc2ccccc2F)C1 (stereo not given) | -2.0 | -6 | -2 | -4 | 0.4 | 7 | 9 | -0.2 | -2 | i
Fc1ccc(CSc2nnc(CN3CCOCC3)n2-c2ccccc2)c(Cl)c1 | · | 7 | -5 | -1 | -3.9 | · | · | · | 1 | ·
COc1ccc(OC)c(NC(=O)C2CCCN(S(C)(=O)=O)C2)c1 (stereo not given) | 0.8 | -4 | 4 | 2 | 1.3 | 14 | 10 | -0.9 | -7 | i
CCCC1=Nc2cc(C(=O)NCCCOC(C)C)ccc2Sc2ccccc21 | · | 30 | -6 | -4 | 3.4 | · | · | · | 44 | ·
Cc1ccc(C(=O)NNc2ncnc3ccccc23)cc1 | 2.7 | 6 | -6 | 1 | 1.9 | 17 | 17 | -2.5 | 2 | i
FC(F)Sc1ccc(NC(=S)N2CCN(c3ccccn3)CC2)cc1 | 0.5 | -5 | 4 | · | -0.8 | -7 | -7 | 2.1 | · | i
Cc1ccc(C)c(NC(=S)NNC(=O)c2ccc(Br)o2)c1 | · | -10 | -1 | 9 | ? | · | · | · | · | ·
Cc1cccc(C)c1N1C(=O)CC(N(O)c2ccccc2)C1=O (stereo not given) | · | -11 | -9 | · | 0.4 | · | · | · | 31 | ·
Cc1ccc(NC(=S)N(CCCN2CCN(C)CC2)Cc2cccs2)cc1 | 4.6 | 4 | -3 | -3 | 1.2 | 5 | -3 | -3.9 | -1 | i
Cn1cc(CN2CCC(C(O)c3cccs3)CC2)c(-c2ccccc2F)n1 (stereo not given) | 5.0 | -1 | -22 | · | 0.1 | 6 | 4 | -4.1 | · | i
c1ccc(C[n+]2c(-c3ccccc3)csc2Nc2ccccc2)cc1 | 0.7 | 19 | -4 | 11 | -3.9 | -15 | -14 | -6.5 | 4 | i
CC(=O)O/N=C(/C)c1ncc(C(F)(F)F)cc1N1CCOCC1 | · | 2 | -6 | -4 | 3.3 | · | · | · | 0 | ·
CCC(O)C1CCN(C(=O)c2ccc(OC3CCN(Cc4ccccn4)CC3)cc2)CC1 (stereo not given) | -0.9 | -2 | -9 | -1 | 5.3 | 8 | 13 | -0.7 | -1 | i
COC(=O)c1ccc(C)c(NC(=O)C2CC(=O)N(C3CCCC(C)C3C)C2)c1 (stereo not given) | ? | · | · | 0 | · | -6 | -14 | 0.6 | -1 | i
O=C(CN1CCC(Cc2ccccc2)CC1)NC(=O)NCc1ccco1 | · | 2 | 1 | -3 | 4.9 | · | · | · | -2 | ·
CN(Cc1ccccc1F)C(=O)C(Cc1ccccc1)NC(=O)c1ccccc1 (stereo not given) | · | -4 | -6 | · | -0.7 | · | · | · | 3 | ·
COCCCn1c(SCC(=O)OC2CCCCC2)nnc1-c1cccs1 | · | -2 | 0 | 1 | 0.1 | · | · | · | -6 | ·
Cc1cc(=O)n2c(-c3ccc(Cl)cc3)csc2n1 | 0.9 | -13 | 0 | 1 | -3.3 | 4 | 2 | -2.3 | -3 | i
CCCCN(CCCC)C(=S)N/N=C/c1c(C)[nH]n(-c2ccccc2)c1=O | · | -21 | 62 | 87* | 3.4 | · | · | · | -2 | ·
CCOc1cc(C(=O)N=c2sccn2C)cc(Br)c1OC | -0.2 | 1 | -2 | -2 | 0.5 | 2 | -1 | 0.1 | 10 | i
O=C1/C(=C/c2cccs2)Sc2ccccc21 | 4.6 | 18 | 6 | 5 | 19* | 2 | 3 | 4.3 | · | i
CCn1c(=S)sc2c(=O)n(CC(=O)Nc3ccccc3C(F)(F)F)c(C)nc21 | -1.2 | 5 | -10 | -1 | 5.7 | 9 | 18 | -1.6 | 44 | i
CCOc1ccc(NC(=O)CN(C)C(=O)c2cccnc2Sc2ccc(Cl)cc2)cc1OCC | 2.2 | 11 | 0 | 1 | 2.4 | -16 | -19 | 3.9 | -6 | i

Shown as a hit in RanGTP-Imp inh (from the list above):
Structure,MLL AF4-AF9 inh,RanGTP-Imp inh,Ecoli rRNA inh,Ecoli rRNA inh OD600,Ecoli rRNA inh RFP,ALR inh,FGF22 binding
O=C1/C(=C/c2cccs2)Sc2ccccc21,4.6,19*,2,3,4.3,·,i

Structures shown so far that contain an aryl methoxy group (six):
SMILES | MLL AF4-AF9 inh | T cruzi repl | Calb FLC | Beta apoptosis | RanGTP-Imp inh | Ecoli rRNA inh | Ecoli rRNA inh OD600 | Ecoli rRNA inh RFP | ALR inh | FGF22 binding
COc1cccc(/C=N/n2nnnc2N)c1 | -2.6 | -13 | -1 | -4 | -0.7 | 9 | -14 | 0.3 | -3 | i
COc1cccc(C(=O)NNC(=O)c2ccccc2-n2cccc2)c1 | -1.6 | -8 | -18 | 1 | -1.2 | 0 | 9 | -1.2 | -4 | i
COc1ccccc1N1CCN(/N=C\c2ccc(C)o2)CC1 | · | -8 | 15 | · | 5.6 | · | · | · | 43 | ·
COc1ccccc1NC(=O)CN(C)S(=O)(=O)c1ccc2c(c1)CCC(=O)N2 | -4.1 | -4 | -1 | -2 | 6.3 | -1 | 2 | -1.8 | 3 | i
COc1ccc(OC)c(NC(=O)C2CCCN(S(C)(=O)=O)C2)c1 (stereo not given) | 0.8 | -4 | 4 | 2 | 1.3 | 14 | 10 | -0.9 | -7 | i
CCOc1cc(C(=O)N=c2sccn2C)cc(Br)c1OC | -0.2 | 1 | -2 | -2 | 0.5 | 2 | -1 | 0.1 | 10 | i
